# gsp agonist – gsp mutant agonism; gsp mutant cells, cAMP HTRF, 30 min; control for the full effect not named in the record; Potency, µM (series often up to 76.9 µM), inactives show at the top dose activation (cAMP increase), usual class: activators; 340,000 compounds, 0.13% hits; active = well fitted activation curve with a large enough effect; inconclusive = small, poorly fitted or top-dose-only effect, or another doubt; inactive = no such curve, though single readings can be large or run the other way; cell line not stated here;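 also: phosphodiesterase inhibitor Ro 20-1724 added with compounds to block cAMP breakdown; potency is read from the fitted curve at half-maximal effect; nearly all actives have a fitted effect of over 60% in size; about a fifth of the inactives were tested at one dose only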
#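 Cells stably selected in G418 were plated at 2000/well, grown 16-24 hr, then given compounds in DMSO with the PDE inhibitor […] (300 uM solution added) for 30 min at 37C; cAMP was read by HTRF.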
# gsp antagonist – gsp mutant antagonism | AID 624288 | Potency, µM (highest dose often 76.9 µM), without a hit: top-dose activity change, negative = inhibition, most hits filed as inhibitors | 340,000 compounds, 0.4% hits | gsp-mutant cells, cAMP HTRF, 30 min; control for the full effect not named in the record; active = falling curve of any shape with a large fitted effect; inconclusive = falling curve, mostly with a smaller effect; inactive = flat or rising curve; cell line not stated here;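 also: intracellular cAMP measured with PDE inhibitor Ro 20-1724 present during compound exposure; potency is read from the fitted curve at half-maximal effect; % is scaled to controls: 0 for no effect and ±100 for the full control effect; nearly all actives have a fitted effect of over 65% in size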
#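 Measurement of cellular cAMP by homogeneous time-resolved fluorescence following a 30 min compound exposure at 37C. The PDE inhibitor […] was present throughout; the assay buffer was DPBS with 0.05% BSA and 0.005% Tween 20.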
# CtBP-E1A blk – inhibitors of CtBP/E1A interaction; AlphaScreen GST-E1A/His-CtBP binding, 1536-well; active compounds read low; control for the full effect not named in the record; activity change, % (no concentration beside the values); 340,000 compounds, 0.49% hits; in the data active means activity change below about -65%; inconclusive means about -30% to -65%; inactive means above about -30%; also: % is scaled to controls: 0 for no effect and ±100 for the full control effect
#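 GST-E1A and His-tagged CtBP (125 nM each as 5X stock) were preincubated with pin-transferred compound for 2 h at 37 °C in the dark, then glutathione donor and nickel acceptor beads were added for 1 h before AlphaScreen reading.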
# D2 ag – activates the human D2 dopamine receptor; activation, % (no concentration beside the values); DiscoveRx PathHunter D2 beta-arrestin, luminescence, 90 min; 100% = 57 uM dopamine signal; AID 624465; 360,000 compounds, 0.084% hits; P14416; in the data active = activation above about 40%; inconclusive = about 15% to 40%; inactive = below about 15%; also: compound concentration not given in the record; the text of the record calls up to 30% inactive
# Target sequence (P14416 whole entry, looked up): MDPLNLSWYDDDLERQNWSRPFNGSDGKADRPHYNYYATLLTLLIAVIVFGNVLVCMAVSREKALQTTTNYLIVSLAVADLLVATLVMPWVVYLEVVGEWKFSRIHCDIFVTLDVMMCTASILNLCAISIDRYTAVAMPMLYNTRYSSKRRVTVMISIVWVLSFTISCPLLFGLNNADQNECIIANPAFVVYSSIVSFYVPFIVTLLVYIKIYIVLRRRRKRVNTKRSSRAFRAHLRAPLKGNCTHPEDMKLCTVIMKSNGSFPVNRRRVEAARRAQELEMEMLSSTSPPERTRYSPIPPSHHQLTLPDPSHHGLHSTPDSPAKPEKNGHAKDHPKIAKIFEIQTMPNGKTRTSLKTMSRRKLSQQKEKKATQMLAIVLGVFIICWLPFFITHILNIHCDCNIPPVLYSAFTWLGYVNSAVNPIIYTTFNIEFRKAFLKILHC
#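 Agonist mode: compounds alone added to overnight-plated D2 PathHunter cells for 90 min at 37 C, with 57 uM final dopamine (EC100) defining full response. Beta-arrestin recruitment detected by chemiluminescent reagent, read after 1 h at ambient temperature.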
# Six1-Eya2 blk – blocks human Six1 binding to Eya2; AlphaScreen GST-Six1/His-Eya2 binding, biochemical; active compounds read low; control for the full effect not named in the record; 360,000 compounds, 0.56% hits; activity change, % (concentration not given with the values); AID 651725; Q15475+O00167; in the data active = activity change below about -65%; inconclusive = about -30% to -65%; inactive = above about -30%; also: % is scaled to controls: 0 for no effect and ±100 for the full control effect
#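 Six1/Eya2 binding was read as AlphaScreen signal after compounds were pinned into GST-Six1 plus His-tagged Eya2 (5X stock 250/500 nM) in pH 8.0 Tris/NaCl/TCEP buffer, beads added, then incubated 1 h, 37 C, dark.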
# D2 PAM – potentiates the human D2 dopamine receptor allosterically; P14416; DiscoveRx D2 beta-arrestin cells, luminescence, 90 min; 100% = 57 uM dopamine signal; potentiation, % (test concentration not listed); 360,000 compounds, 0.23% hits; active = potentiation of 50% or more; inconclusive = 30% to 50%; inactive = 30% or less;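 also: compound concentration not given in the record; tested on top of an EC20 dose of dopamine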
#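 PathHunter beta-arrestin assay in DiscoveRx D2 cells. Compounds were added with an EC20 of dopamine (50 nM final) for 90 min at 37 deg C. Luminescence was read 1 h after detection reagent, with 57 uM dopamine as the EC100 control.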
# The depositor's hits bear a star; u = inconclusive; x = no result given; [ ] = remark or other dose. This is a random part of the collection; any-hit rate near 1.4%.
D2 PAM,Six1-Eya2 blk,D2 ag,CtBP-E1A blk,gsp agonist,gsp antagonist,molecule
-26.0,0.2,-1.1,-0.5,x,13.1%,CN1CCN(C(=O)C2=C[C@@H](c3csc4ccccc34)C[C@@H](OCCCCO)O2)CC1
-8.8,2.9,-0.8,9.2,1.2%,9.8%,Clc1cc(Cl)cc(Nc2ncn[nH]2)c1
-2.5,3.4,-3.8,9.2,-64.6%[inhibitor],-23.3%,O=C1c2ccsc2SCCN1Cc1ccc(F)cc1
-13.0,-0.2,-5.6,-1.7,17.1%,-4.4%,CC1=C(c2ccc(C(C)C)cc2)S(=O)(=O)N=C1N1CCN(C(=O)c2ccco2)CC1
-3.9,-3.2,-0.8,x,1.8%,-5.6%,N/C(=N\N=C\c1ccc(Br)o1)c1nonc1N
-5.2,1.7,-4.3,1.6,x,x,CCC(=O)N1CCC1(C)C(=O)Nc1ccc2c(c1)CCN2C(C)=O (stereo not drawn)
10.9,-0.5,0.4,-0.1,23.7%,-22.9%,COC(=O)c1cc(Cc2ccc(N)c(C(=O)OC)c2)ccc1N
-5.0,0.4,-1.8,-16.3,1.7%[15.4 µM],x,COc1ccc(C)cc1S(=O)(=O)N1CCN(C(=O)c2ncoc2-c2ccccc2F)CC1
-7.2,-13.0,-2.5,-1.2,-23.5%,-9.1%,CCn1c2ccccc2c2nnc(NN)nc21
-7.5,-0.4,-0.1,2.6,9.3%,7.3%,COc1ccccc1CNC(=O)CNC(=O)[C@@H]1Cc2ccccc2CN1

# Entries listed so far with fluorine:
D2 PAM,Six1-Eya2 blk,D2 ag,CtBP-E1A blk,gsp agonist,gsp antagonist,molecule
-2.5,3.4,-3.8,9.2,-64.6%[inhibitor],-23.3%,O=C1c2ccsc2SCCN1Cc1ccc(F)cc1
-5.0,0.4,-1.8,-16.3,1.7%[15.4 µM],x,COc1ccc(C)cc1S(=O)(=O)N1CCN(C(=O)c2ncoc2-c2ccccc2F)CC1

# (cont.)
D2 PAM,Six1-Eya2 blk,D2 ag,CtBP-E1A blk,gsp agonist,gsp antagonist,molecule
-2.8,4.5,-2.6,-0.6,11.4%[15.4 µM],0.4%,CC1Cc2ccccc2N1C(=S)NC(=O)C1(C)CC1(Cl)Cl (stereo not drawn)
-6.8,0.7,-2.2,-23.7,u,11.7%,O=C(NCC1CCCO1)C1CCN(C2CCN(CCCC3CCCC3)CC2)CC1 (stereo not drawn)
1.6,-21.2,-3.3,-9.9,u,-0.8%,CCN(CC)CC(=O)Nc1cccc2c1C(=O)c1ccccc1C2=O
-5.3,6.8,-11.3,6.9,4.0%,9.0%,CN1C(=O)N(C)C(NC(=O)Nc2ccccc2)C1NC(=O)Nc1ccccc1 (stereo not drawn)
-14.7,-4.3,-1.9,-2.1,0.6%,-14.7%,O=C(c1ccc([N+](=O)[O-])cc1)n1nc(-c2ccccc2)nc1NCc1ccc(F)cc1
0.0,2.0,-3.5,0.0,26.7%,11.7%,O=C(O)/C=C/C(=O)NCC1CCC(CNC(=O)/C=C/C(=O)O)CC1 (stereo not drawn)
10.3,-0.2,0.0,-1.5,1.2%,-0.1%,C/C(=N\NC(=O)c1c(Cl)cnn1C)c1ccc(NC(=O)c2ccc(Br)o2)cc1
3.2,-27.5,1.7,-15.9,-25.6%,-22.1%,COc1ccc2c(c1)[C@@H]1[C@H](CO2)[C@H](c2ccccc2)[C@]2(C)C(=O)Nc3ccc(C)cc3C(=O)N12
-0.8,-0.3,2.0,8.5,17.8%,19.8%,Cc1ccc(Cl)cc1NC(=O)COC(=O)c1ccc(CN2CCCC2=O)cc1
-2.1,1.2,-1.6,11.1,-32.9%[inhibitor],1.2%,Cc1cc(C(=O)N2CCN(c3ncccn3)CC2)cs1
-10.6,0.7,-2.6,-5.5,-17.1%,3.3%,COc1ccccc1C(=O)N(Cc1ccc(Cl)cc1)C1CCS(=O)(=O)C1 (stereo not drawn)
-6.2,17.6,-2.1,31.3,u,u,Cc1ccc2oc(=O)n(Cc3ccccc3OC(C)C)c2c1
-10.5,0.6,-2.3,-19.0,-60.9%[inhibitor],-3.3%,CCN1CCN(c2nc(N)c([N+](=O)[O-])c(Nc3cccc(C)c3)n2)CC1
-1.4,-8.6,-1.6,-21.7,-16.0%[15.4 µM],0.4%,CCC(CC)C(=O)N=C1SC2CS(=O)(=O)CC2N1CCc1ccc(OC)c(OC)c1 (stereo not drawn)
-39.0,0.8,-0.9,-14.3,1.1%,5.2%,CC(=O)c1c(N2CCN(Cc3ccccc3)CC2)nc(=S)n(Cc2ccccc2)c1C
-13.3,2.7,1.9,-7.7,-3.4%,4.6%,O=C(NCCC1=CCCCC1)C1CCC(CNS(=O)(=O)c2ccccc2)CC1 (stereo not drawn)
-10.2,2.4,-1.7,1.5,-24.7%,-4.8%,CCc1ccc(NC(=O)C2CCCCC2C(=O)O)cc1 (stereo not drawn)
-6.4,-6.2,-2.0,-20.9,8.2%,-18.8%,COc1ccccc1CN(C)C(=O)c1cc(C)nc2ccccc12
-3.3,-2.5,-5.4,5.8,x,9.6%,COc1ccc(CNC(=O)[C@H](Cc2ccccc2)NC(=O)C2CCN(C(=O)[C@H](C)N)CC2)cc1
-12.3,2.8,-5.0,4.7,-21.7%,18.7%,Cc1cccc(CN2CCN(C(=O)CCl)CC2)c1

# Among those listed so far, 3 contain a furan ring, fused or not:
D2 PAM,Six1-Eya2 blk,D2 ag,CtBP-E1A blk,gsp agonist,gsp antagonist,molecule
-13.0,-0.2,-5.6,-1.7,17.1%,-4.4%,CC1=C(c2ccc(C(C)C)cc2)S(=O)(=O)N=C1N1CCN(C(=O)c2ccco2)CC1
-3.9,-3.2,-0.8,x,1.8%,-5.6%,N/C(=N\N=C\c1ccc(Br)o1)c1nonc1N
10.3,-0.2,0.0,-1.5,1.2%,-0.1%,C/C(=N\NC(=O)c1c(Cl)cnn1C)c1ccc(NC(=O)c2ccc(Br)o2)cc1

# The list goes on:
D2 PAM,Six1-Eya2 blk,D2 ag,CtBP-E1A blk,gsp agonist,gsp antagonist,molecule
-1.6,-1.6,-1.4,1.0,3.3%,u,O=C(Cn1c(=O)n(Cc2ccco2)c(=O)c2ccccc21)Nc1cccc(Cl)c1
-13.9,0.0,-2.2,-2.0,-2.4%,-2.5%,COC(=O)CCN(C(C)=O)c1ccc(N)cc1
-1.7,-1.8,0.7,0.1,u,-12.7%,CCOc1cccc(C(=O)Nc2cc(C)ccc2NC(=O)c2ccco2)c1
-28.0,1.6,0.1,8.1,-0.5%,-7.3%,COC(=O)c1ccc(COC(=O)CNC(=O)c2cccs2)cc1
-26.2,-2.8,-3.3,-0.2,11.4%[15.4 µM],4.5%,CN1CCC(N(C)S(=O)(=O)c2ccc(NC(=O)c3ccc(S(=O)(=O)N(C)C)cc3)cc2)CC1
1.6,25.3,10.9,9.6,x,x,NC(c1csc(NC(=O)Nc2cccc(Cl)c2)n1)C1CCCCC1 (stereo not drawn)
4.7,18.0,-4.6,1.2,-8.8%[15.4 µM],11.2µM*,O=C(Nc1ccc(OC(F)F)cc1)c1ncc(Cl)c(Cl)c1Cl
-7.6,-13.9,-6.2,-21.7,22.4%,u,CC(=O)c1ccc(NS(=O)(=O)c2cc(-c3cnc(C4CC4)o3)ccc2C)cc1
-22.2,-11.8,-4.7,-6.5,0.3%,-14.2%,O=C(OCC(=O)N(CCc1ccccc1)Cc1ccccc1)c1ccccc1[N+](=O)[O-]
-16.6,-1.6,-2.9,1.8,-6.6%,-30.8%,O=C(C1CCCN(S(=O)(=O)c2cc(Cl)ccc2Cl)C1)N1CCCCCC1 (stereo not drawn)
-21.7,16.0,-5.7,-18.1,2.5%[15.4 µM],x,CCn1c(SCC(=O)O)nnc1-c1cccnc1
0.5,-1.2,-0.4,4.8,u,0.3%,CC1=NN2C(=N)/C(=C\c3cc(C)n(-c4ccccc4)c3C)C(=O)N=C2S1
-21.0,2.6,-6.3,3.4,2.3%[15.4 µM],-4.5%,CC(C)(C)c1ccc(OCC(=O)NNC(=O)CCc2ccccc2)cc1
10.6,4.0,0.4,5.0,-25.8%,0.0%,CC(NC(=O)Nc1nccs1)(C(F)(F)F)C(F)(F)F
-13.1,3.7,-1.3,-5.7,u,3.0%,CCN(c1ccc(OC)cc1)S(=O)(=O)c1ccc2c(c1)NC(=O)CS2
-36.5,7.4,-1.9,0.3,u,-5.9%,CCc1nnc(SCC(=O)N2CCc3ccccc32)n1CC
-7.8,2.6,0.1,8.8,-39.0%[inhibitor],1.1%,COc1cccc(CNC(=O)C2CCN(S(=O)(=O)N3CC(C)CC(C)C3)CC2)c1 (stereo not drawn)
-4.8,u,-1.5,-16.2,-42.9%,2.9%,O=c1/c(=C/c2ccccn2)sc2n1CN(c1ccccc1)CN=2
-9.0,-1.5,-3.5,1.1,20.1%,-2.5%,CCOC(=O)C1CCCCN1Cc1ccc(OC)c(OC)c1OC (stereo not drawn)
-6.0,1.4,-3.1,4.5,u,2.3%,COc1cccc(/C(O)=C2/C(=O)C(=O)N(Cc3cccnc3)C2c2ccco2)c1 (stereo not drawn)
7.0,7.2,2.8,0.8,-4.4%[15.4 µM],-25.7%,Cc1ccc(N(C(=O)c2snc(C(N)=O)c2N)C(C(=O)NCC2CCCO2)c2ccc3ncccc3c2)cc1 (stereo not drawn)
-3.9,-4.7,-0.7,0.0,2.4%,2.0%,CCOc1cc(S(=O)(=O)NCc2ccc(OC)cc2)c(OCC)cc1-n1cnnn1
1.6,-3.4,-4.2,5.1,13.2%,9.5%,O=C1CN(C(=O)c2cnccn2)c2ccccc2N1
-9.2,-8.6,-2.7,-6.1,0.4%[15.4 µM],6.6%,COc1ccc(Cl)cc1NC(=O)COc1ccc(S(=O)(=O)N2CCOCC2)cc1C
-5.3,8.8,1.0,-12.4,-38.4%[inhibitor],13.0%,CC1CC(C)CN(CCCNC(=O)C2CCCN(S(=O)(=O)N3CC(C)CC(C)C3)C2)C1 (stereo not drawn)
-8.4,-7.2,-2.0,0.9,-3.1%,5.9%,Cc1ccccc1Cn1c(=N)n(CC(=O)c2ccco2)c2ccccc21
-5.7,4.8,-1.0,-2.6,5.2%,-2.4%,CCCCCNC(=O)c1ccccc1SC
-8.9,-5.4,-1.5,0.0,9.2%,-4.4%,CCCS(=O)(=O)c1c(S(=O)(=O)CCC)c2c(C(N)=O)cccn2c1C(=O)c1ccc(F)cc1
-15.4,-5.2,-2.8,-1.6,u,0.9%,COC(=O)C(NC(=O)c1ccccc1)(Nc1cc(C)cc(C)n1)C(F)(F)F (stereo not drawn)
-3.5,4.6,0.1,3.5,u,-10.8%,CCOC(=O)CSc1nnc(NC(=O)NC(C)C)s1

# 2 of these compounds in another layout:
# Under each structure – D2 PAM, Six1-Eya2 blk, D2 ag, CtBP-E1A blk, gsp agonist, gsp antagonist
> CCCS(=O)(=O)c1c(S(=O)(=O)CCC)c2c(C(N)=O)cccn2c1C(=O)c1ccc(F)cc1
    -8.9, -5.4, -1.5, 0.0, 9.2%, -4.4%
> COC(=O)C(NC(=O)c1ccccc1)(Nc1cc(C)cc(C)n1)C(F)(F)F (stereo not drawn)
    -15.4, -5.2, -2.8, -1.6, u, 0.9%

# Screening data as filed in PubChem.
